Screening results (PubChem BioAssay)
UBC13 polyUb: blocks human UBC13 polyubiquitin chain formation; P61088; TR-FRET; inhibition, % at 20 µM; 0.47% of 330,000 active; AID 485273; in the data active = inhibition above about 45%, passing the limit was not always enough
PfG6PD inh: PfG6PD (Plasmodium falciparum) enzyme inhibition. AID 504690. PfGluPho enzyme, NADPH resazurin-diaphorase fluorescence. 0.78% of 350,000 active. inhibition, % at 20 µM;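 active = inhibition reaching at least a set limit at 20 µM in the primary screen, cut at about 59% in these data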;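 note: 0% = DMSO wells with substrate and 100% = DMSO wells lacking glucose-6-phosphate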
SENP1 FRET inh: inhibitors of human SENP1 SUMO protease catalytic domain | recombinant SENP1 catalytic domain, CyPet-SUMO1-YPet FRET cleavage | inhibition, % at 10 µM | 0.21% of 360,000 active | Q9P0U3;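 active = inhibition at least 30% at 10 µM, raw YFP signal under a set limit, fluorescence ratio 0.5 to 1.5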;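 note: 0% = enzyme with DMSO and 100% = no enzyme wells; some results filed as inactive read as strong as hits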
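Test system: recombinant human SENP1 catalytic domain, His6-tagged / Medium: pH 8 Tris buffer with EDTA, NaCl, BME, BSA, NP40, catalase / Also added: SUMO1 FRET substrate flanked by Cypet and Ypet, 25 nM / Times: 50 min reaction at room temperature / Signal: FRET, CFP and YFP emission / Control set: no-enzyme low control and enzyme-plus-DMSO high control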
SENP8 block: inhibitors of human SENP8 protease. 0.64% of 360,000 active. Q96LD8. AID 602440. inhibition, % at 20 µM. recombinant SENP8, Nedd8 substrate fluorescence; in the data active = inhibition mostly above about 40%, no sharp cut-off; inactive = mostly below about 27%
HKDC1 inh: blocks human hexokinase HKDC1 activity; inhibition, % at 20 µM; recombinant HKDC1, G6PDH/diaphorase resazurin coupled fluorescence; Q2TB90; 0.16% of 340,000 active;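 active = inhibition above about 35% when tested at 20 µM, limit read from the data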;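 note: plate controls were DMSO wells with enzyme for no effect and DMSO wells lacking enzyme for full effect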
Target sequence (Q2TB90 whole entry, looked up): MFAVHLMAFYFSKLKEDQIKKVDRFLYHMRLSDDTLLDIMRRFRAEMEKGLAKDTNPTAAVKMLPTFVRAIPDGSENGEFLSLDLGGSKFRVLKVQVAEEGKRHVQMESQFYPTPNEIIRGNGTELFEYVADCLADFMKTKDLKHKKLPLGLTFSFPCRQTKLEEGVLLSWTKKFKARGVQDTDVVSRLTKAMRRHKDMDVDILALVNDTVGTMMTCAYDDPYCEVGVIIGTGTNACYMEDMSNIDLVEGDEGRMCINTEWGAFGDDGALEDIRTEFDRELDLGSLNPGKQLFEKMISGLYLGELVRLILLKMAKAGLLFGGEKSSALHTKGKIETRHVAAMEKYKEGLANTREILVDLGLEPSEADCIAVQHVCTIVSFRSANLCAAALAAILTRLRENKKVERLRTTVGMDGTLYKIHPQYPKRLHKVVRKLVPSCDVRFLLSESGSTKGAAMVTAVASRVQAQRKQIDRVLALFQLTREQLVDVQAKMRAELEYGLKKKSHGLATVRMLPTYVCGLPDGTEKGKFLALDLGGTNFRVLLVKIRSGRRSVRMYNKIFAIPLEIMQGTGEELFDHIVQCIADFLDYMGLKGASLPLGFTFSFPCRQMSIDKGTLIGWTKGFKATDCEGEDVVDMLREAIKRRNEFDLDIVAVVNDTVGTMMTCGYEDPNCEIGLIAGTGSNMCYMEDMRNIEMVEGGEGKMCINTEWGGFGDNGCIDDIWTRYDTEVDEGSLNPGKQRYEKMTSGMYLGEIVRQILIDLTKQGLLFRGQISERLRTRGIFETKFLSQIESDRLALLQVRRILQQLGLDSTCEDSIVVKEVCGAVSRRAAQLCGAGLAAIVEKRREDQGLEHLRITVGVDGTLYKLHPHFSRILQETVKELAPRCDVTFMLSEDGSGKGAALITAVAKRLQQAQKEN
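Test system: recombinant HKDC1 (HK5) hexokinase enzyme, produced in-house / Doses: 20 µM test compound, 1% DMSO / Timing: 90 min, room temperature / Detection: G6PDH/diaphorase-coupled fluorescence, 1 mM NADP, 100 µM resazurin, 525/613 nm / Control set: DMSO wells with and without enzyme mix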
MIN6 prolif: MIN6 beta-cell proliferation induction; MIN6 cells proliferation, ATPlite luminescence, 48 h; cells starved in 0.2% serum; 100% = growth in 10% serum; proliferation, % at 10 µM; AID 2380; 0.29% of 330,000 active;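 active = compounds whose signal lies at least 3.5 SD above the mean of all wells on their plate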;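 note: 0% = DMSO-treated cells in low-serum medium and 100% = 10% serum control; some compounds called inactive have numbers as strong as hits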
* = called active by the depositor.

no. | canonical_smiles | UBC13 polyUb | PfG6PD inh | SENP1 FRET inh | SENP8 block | HKDC1 inh | MIN6 prolif
1 | Cc1cc(C)c2c(CC(=O)NNC(=O)c3ccccc3)coc2c1 | 10 | -3 | 0 | -11 | -4 | -5
2 | CCOC(=O)c1cc2c(ccn2-c2ccc(F)cc2)n1CC(=O)N1CCN(C(=O)c2ccco2)CC1 | 6 | 17 | 1 | -228 | 3 | -3
3 | O=C(Cn1cnc2sc3c(c2c1=O)CCCC3)NCC(=O)Nc1c(F)cccc1F | 1 | -17 | 3 | 18 | -2 | -3
4 | N#CC(c1ccccn1)(c1ncc(C(F)(F)F)cc1Cl)N1CCOCC1 (stereo not given) | 1 | -4 | 3 | 15 | -8 | 1
5 | COCCNc1nnc(SCC(=O)c2ccc3c(c2)OCO3)s1 | 2 | 4 | -2 | 27 | -2 | -2
6 | C=CCNCCCOc1ccc(Cl)cc1C(C)(C)C | 28 | 50 | 0 | 9 | -7 | -5
7 | COc1ccccc1-n1c(-c2ccc(NS(C)(=O)=O)cc2)n[nH]c1=S | 2 | 29 | 3 | -58 | -3 | 0
8 | COC(=O)C1=NN(c2ccc(OC)cc2)C2C(=O)N(c3ccccc3OC)C(=O)C12 (stereo not given) | -3 | -2 | 16 | -91 | 2 | -1
9 | Cc1csc(NC(=O)c2cc([N+](=O)[O-])cc([N+](=O)[O-])c2)n1 | 1 | 24 | 3 | 30 | -5 | -1
10 | O=S(=O)(Cc1c(F)cccc1Cl)c1ncn[nH]1 | 10 | -10 | 1 | 11 | 5 | -3
11 | Cc1ncccc1C(=O)N1CCCC(CNC(=O)C2(c3ccc(Cl)cc3)CC2)C1 (stereo not given) | -2 | 2 | -1 | 3 | -3 | 2
12 | COc1ccc(C2=NCCn3c2c2ccc(C(F)(F)F)cc2[n+]3[O-])cc1 | -8 | -8 | -3 | 15 | 1 | -2
13 | CN(CCO)c1cc(NCCCN2CCC(Cc3ccccc3)CC2)c2nonc2c1[N+](=O)[O-] | -24 | 4 | -47 | 16 | -1 | -7
14 | Cc1cc(O)c(NC(=O)c2cccc([N+](=O)[O-])c2)cc1C | -8 | 2 | 2 | 14 | 1 | 0
15 | C/C(=N\NC(=O)c1ccc(NS(=O)(=O)c2cccs2)cc1)c1ccncc1 | -5 | -8 | -1 | 24 | -5 | -2
16 | O=C(CSc1nnc2c(Cl)cc(C(F)(F)F)cn12)Nc1ccc2c(c1)OCO2 | -12 | 9 | 2 | 18 | -14 | -1
17 | CC(C)c1nc2n[nH]c(N)c2c2c1CCCC2 | 2 | 36 | 1 | -48 | -1 | 6.1*
18 | COc1ccccc1N1C(=O)C2C(C(=O)c3ccccc3)=NN(c3ccc(C)cc3)C2C1=O (stereo not given) | -10 | 11 | -35 | -28 | 0 | -2
19 | C=CCn1c(CNC(=O)c2ccccc2F)nnc1SCc1nc2ccccc2c(=O)[nH]1 | 1 | 7 | -3 | 7 | 2 | -4
20 | C=CCn1c(C)cc(C(=O)COC(=O)c2ccc(N)c([N+](=O)[O-])c2)c1C | 1 | 19 | 0 | 13 | -2 | -3

Two entries picked at random from the list so far, as already listed:
no. | canonical_smiles | UBC13 polyUb | PfG6PD inh | SENP1 FRET inh | SENP8 block | HKDC1 inh | MIN6 prolif
16 | O=C(CSc1nnc2c(Cl)cc(C(F)(F)F)cn12)Nc1ccc2c(c1)OCO2 | -12 | 9 | 2 | 18 | -14 | -1
5 | COCCNc1nnc(SCC(=O)c2ccc3c(c2)OCO3)s1 | 2 | 4 | -2 | 27 | -2 | -2

Next results.
no. | canonical_smiles | UBC13 polyUb | PfG6PD inh | SENP1 FRET inh | SENP8 block | HKDC1 inh | MIN6 prolif
21 | CCn1c(COc2ccc(Cl)cc2)nnc1SCC(=O)Nc1ccc2c(c1)OCO2 | 4 | 0 | 1 | 10 | -5 | -4
22 | CC1CCCN(C(=O)CSc2n[nH]c(-c3cccs3)n2)C1 (stereo not given) | 4 | 4 | -1 | -19 | 10 | -1
23 | COc1nccnc1NS(=O)(=O)c1ccc(NC(=O)c2cccc(C)c2)cc1 | -8 | -3 | 2 | 0 | -11 | 4
24 | CNCCCOc1ccc(Cl)cc1C(C)(C)C | 8 | 38 | 3 | 11 | -9 | -5
25 | COc1ccc(Cc2noc(-c3ccc(OC)c(OC)c3)n2)cc1OC | -8 | -23 | 3 | 3 | -2 | 0
26 | Cc1ccsc1C1NC(=O)c2ccccc2N1 (stereo not given) | 11 | -9 | 0 | -388 | -7 | 2
27 | CCOC(=O)c1ccc2c(c1)C(=O)N(C1CCCCC1)C2=O | 4 | 0 | 3 | 12 | -5 | -2

Five entries from above, ordered by molar mass, high to low.
no. | canonical_smiles | UBC13 polyUb | PfG6PD inh | SENP1 FRET inh | SENP8 block | HKDC1 inh | MIN6 prolif
23 | COc1nccnc1NS(=O)(=O)c1ccc(NC(=O)c2cccc(C)c2)cc1 | -8 | -3 | 2 | 0 | -11 | 4
25 | COc1ccc(Cc2noc(-c3ccc(OC)c(OC)c3)n2)cc1OC | -8 | -23 | 3 | 3 | -2 | 0
22 | CC1CCCN(C(=O)CSc2n[nH]c(-c3cccs3)n2)C1 (stereo not given) | 4 | 4 | -1 | -19 | 10 | -1
24 | CNCCCOc1ccc(Cl)cc1C(C)(C)C | 8 | 38 | 3 | 11 | -9 | -5
26 | Cc1ccsc1C1NC(=O)c2ccccc2N1 (stereo not given) | 11 | -9 | 0 | -388 | -7 | 2

One compound at a time, from the list above. Order of values: UBC13 polyUb	PfG6PD inh	SENP1 FRET inh	SENP8 block	HKDC1 inh	MIN6 prolif
CC1CCCN(C(=O)CSc2n[nH]c(-c3cccs3)n2)C1 (stereo not given) across the screens: 4	4	-1	-19	10	-1
CNCCCOc1ccc(Cl)cc1C(C)(C)C across the screens: 8	38	3	11	-9	-5
CCn1c(COc2ccc(Cl)cc2)nnc1SCC(=O)Nc1ccc2c(c1)OCO2 across the screens: 4	0	1	10	-5	-4
CCOC(=O)c1ccc2c(c1)C(=O)N(C1CCCCC1)C2=O across the screens: 4	0	3	12	-5	-2
COc1nccnc1NS(=O)(=O)c1ccc(NC(=O)c2cccc(C)c2)cc1 across the screens: -8	-3	2	0	-11	4

Some of the compounds tested; rates above refer to the full screens.
